# High-throughput results from PubChem BioAssay.
# RecA splice inh – inhibitors of M. tuberculosis RecA intein splicing | inhibition, %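 (about 9 µM by stock and volumes)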 | hit rate 0.75% among 290,000 | cell-free RecA intein splicing, fluorescence; in the data active = inhibition above about 30%; inconclusive = no clear call, values can overlap the other calls;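 note: 0% = vehicle wells and 100% = reference inhibitor control wells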
# Target sequence (P9WHJ3 whole entry, looked up, canonical isoform): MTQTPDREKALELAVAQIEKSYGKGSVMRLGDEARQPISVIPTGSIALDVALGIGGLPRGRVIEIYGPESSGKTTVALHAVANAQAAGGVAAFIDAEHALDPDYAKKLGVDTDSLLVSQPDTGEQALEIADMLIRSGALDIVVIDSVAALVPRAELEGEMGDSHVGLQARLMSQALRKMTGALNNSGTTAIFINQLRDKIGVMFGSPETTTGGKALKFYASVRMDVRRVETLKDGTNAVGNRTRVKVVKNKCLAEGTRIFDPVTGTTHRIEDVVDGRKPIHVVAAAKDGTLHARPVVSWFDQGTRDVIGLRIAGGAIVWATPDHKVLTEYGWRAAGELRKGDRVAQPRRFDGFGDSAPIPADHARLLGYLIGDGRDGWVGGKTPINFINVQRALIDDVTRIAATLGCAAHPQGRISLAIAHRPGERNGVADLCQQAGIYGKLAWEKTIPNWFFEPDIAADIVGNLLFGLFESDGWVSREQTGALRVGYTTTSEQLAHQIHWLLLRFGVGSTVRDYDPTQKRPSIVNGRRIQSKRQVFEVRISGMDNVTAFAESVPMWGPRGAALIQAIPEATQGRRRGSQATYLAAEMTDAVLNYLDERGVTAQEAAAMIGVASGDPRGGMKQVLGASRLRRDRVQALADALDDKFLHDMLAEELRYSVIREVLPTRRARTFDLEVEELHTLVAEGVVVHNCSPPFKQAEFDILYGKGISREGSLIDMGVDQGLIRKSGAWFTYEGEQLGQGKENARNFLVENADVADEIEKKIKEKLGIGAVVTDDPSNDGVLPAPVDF
# Arbovirus anti – arbovirus infection inhibition. arbovirus infection cell-based antiviral screen. inhibition, % at 10 µM. hit rate 0.37% among 200,000. AID 1251;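 active = inhibition from about 30%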;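 note: bluetongue infection of BSR cells; cell survival read as ATP light after 72 h; 0% = infected wells without compound and 100% = uninfected wells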
# YopH PTP inh – inhibitors of Yersinia enterocolitica YopH tyrosine phosphatase. hit rate 0.16% among 140,000. fluorescence Ex485/Em525. inhibition, %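 (about 10 µM by stock and volumes)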. AID 898;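 active = inhibition of 50% or more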;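 note: controls were vehicle for no effect and minimum signal wells for full effect; inactives centre near -20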
# Mtb growth – M. tuberculosis H37Rv growth inhibitors, H37Rv strain (AID 1626). inhibition, % at 10 µM, or IC50 in µM where a hit was titrated. M. tuberculosis H37Rv growth inhibition; higher % means a stronger effect. hit rate 0.95% among 220,000;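 active = confirmed in a dose series; inconclusive = inhibition above 80% but not taken into the dose series; inactive = below 80% or under 30% at every dose of the series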;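 note: bacteria incubated seven days before Alamar blue readout; 0% = bacteria only wells and 100% = bacteria with antibiotic wells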
# Mtb betalactam – beta-lactam sensitization of Mtb H37Rv; M. tuberculosis H37Rv growth with meropenem, percent inhibition; hits of this screen are not shown here; inhibition, % at 25 µM; hit rate 0.27% among 330,000;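 active = about 74% or more and at least 40 points above the plate without the antibiotic, then above 30% in a dose series; inconclusive = first-round hits that could not be retested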;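 note: growth measured after seven days incubation then overnight dye step; 0% = bacteria only wells and 100% = bacteria with antibiotic; twin plates without the antibiotic show which effects depend on it; some results filed as inactive read as strong as hits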
# Arbovirus anti repeat – recorded beside Arbovirus anti, whose call it bears; inhibition, %; measured here: 10K subset replicate screen; many hits read low in the repeat;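 first of two repeat runs on a subset; 0% = infected and 100% = uninfected wells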
# * = called active by the depositor; i = inactive; ? = inconclusive; . = no result given; & = joins results of further samples. Only part of the results is shown, so the mix of outcomes need not match the whole.
SMILES,RecA splice inh,Arbovirus anti,YopH PTP inh,Mtb growth,Mtb betalactam,others
CC(=O)c1c(C)[nH]c(C(=O)NCc2ccccc2)c1C,3.9,-5,14,-7%,-7,
C=Cn1cc[n+](CC(=O)c2cc(C(C)(C)C)c(O)c(C(C)(C)C)c2)c1,-0.7,.,.,.,0,
CC1(C)Nc2ccccc2N(Cc2ccc([N+](=O)[O-])cc2)C1=O,0.8,4,.,0%,-11,
COc1ccc(S(=O)(=O)Nc2ccc3c(c2)n(C)c(=O)n3C)cc1OC,-2.2,.,.,.,0,
Cc1csc(NC(=O)c2ccc[nH]c2=O)n1,-0.2,.,.,.,-10,
COC(=O)c1cc(Br)ccc1NC(=O)Nc1ccc(C)cc1,3.9,.,-22,5%,-8,
Cc1[nH]c2ccccc2c1C(c1ccncc1)N1CCN(c2ccccc2F)CC1 (stereo unspecified),1.7,17,2,-6%,5,
Cc1nc(-c2ccc(Br)cc2)ccc1C(=O)O,-3.6,2,-14,4%,-3,
CN1CCN(c2nc3c(c(=O)n(C)c(=O)n3C)n2Cc2ccc(Cl)cc2)CC1,0.7,.,.,.,8,
CCOC(=O)C1=C(Nc2ccccc2)CC(C)(O)C(C(=O)OCC)C1c1ccc(Br)cc1 (stereo unspecified),1.6,6,-21,2%,-3,

# 4 compounds picked at random from those above:
SMILES,RecA splice inh,Arbovirus anti,YopH PTP inh,Mtb growth,Mtb betalactam,others
C=Cn1cc[n+](CC(=O)c2cc(C(C)(C)C)c(O)c(C(C)(C)C)c2)c1,-0.7,.,.,.,0,
COc1ccc(S(=O)(=O)Nc2ccc3c(c2)n(C)c(=O)n3C)cc1OC,-2.2,.,.,.,0,
Cc1csc(NC(=O)c2ccc[nH]c2=O)n1,-0.2,.,.,.,-10,
CCOC(=O)C1=C(Nc2ccccc2)CC(C)(O)C(C(=O)OCC)C1c1ccc(Br)cc1 (stereo unspecified),1.6,6,-21,2%,-3,

# Further entries
SMILES,RecA splice inh,Arbovirus anti,YopH PTP inh,Mtb growth,Mtb betalactam,others
CCCc1nnc(SCC(=O)Nc2nccs2)o1,0.4,.,.,.,91,
CC(C)NS(=O)(=O)c1cccc2nsnc12,-1.4,4,-29,0%,-6,
Cc1cc(C)n(CC(=O)Nc2ccc(N3CCOCC3)c(Cl)c2)c(=O)c1C#N,-0.2,.,.,.,1,
Cc1cc2c(cc1C)-c1c(ssc1=Nc1ccc(S(N)(=O)=O)cc1)C(C)(C)N2,-5.2,-9,.,14%,7,
Cc1cc(C)n(C(=O)CCC(=O)Nc2ccc(C)c(C)c2)n1,0.3,1,-26,-4%,-13,
Cc1ccc(C(=O)N2CCN(Cc3ccc4c(c3)OCO4)CC2)cc1S(=O)(=O)N1CCOCC1,3.5,.,.,-10%,0,
COc1cc(/C=N/O)cc(Br)c1OCC(=O)NCc1ccccc1,1.7,8,10,4%,-1,
COc1cccc(CNc2ncc(Br)cc2Br)c1O,-2.0,5,-49,-9%,10,
COc1ccc(S(=O)(=O)N2CCCOC2CNC(=O)C(=O)NCCc2ccco2)cc1OC (stereo unspecified),-0.3,.,.,.,-11,
COc1ccc2c3c([nH]c2c1)C1(NCC3)C(=O)Nc2ccccc21 (stereo unspecified),-1.3,.,.,-3%,-3,
Cc1cc(C(=O)OCC(=O)Nc2ccc(F)cc2[N+](=O)[O-])c2ccccc2n1,-0.7,3,-28,8%,4,
CC1=Nc2cc(Cl)ccc2Oc2ccccc21,1.0,-5,.,-6%,-2,
CN(Cc1ccccc1)C(=O)COC(=O)c1ccccc1NS(=O)(=O)c1cccc(N)c1,3.2,7,-28,-9%,-1,
O=C(c1ccc2nc3ccccc3c(=O)n2c1)N1CCN(Cc2ccc3c(c2)OCO3)CC1,-18,-4,-11,6%,15,
CN(Cc1ccccc1)C(=O)COC(=O)c1ccc(S(=O)(=O)N(C)C)cc1,-0.3,1,.,-5%,2,
C=C(C(=O)c1ccccc1)C(c1ccccc1)C(C)C(=O)c1ccccc1 (stereo unspecified),-1.2,-9,-10,10%,8,
Cc1nn(C)c(C)c1C(C)NC(=O)c1cc(COc2cncc(Cl)c2)on1 (stereo unspecified),-1.8,.,.,.,-8,
CC(C)(C)OC(=O)N1Cc2ccccc2C[C@H]1C(=O)NCC(=O)Nc1ccc2c(c1)OCCO2,-2.5,.,.,.,2,
CCCCNc1c(-c2ccc(OC)c(SC3CCCCC3)c2)nc2cnccn12,-132,.,.,.,99,
Cc1cc(=O)oc2cc(OCC(=O)OCC(=O)N3CCC(C)CC3)ccc12,-2.4,6,.,-9%,-4,
COc1ccccc1/C=C1\SC(=O)N(CCC(=O)NNC(=O)c2ccccc2Cl)C1=O,-1.8,-6,-33,13%,-10,
CSCCC(NC(=O)c1ccccc1C)C(=O)O (stereo unspecified),-2.2,1,.,-4%,1,
CN(C[C@H](Cc1ccccc1)N(C[C@H](CC1CCCCC1)N(CCc1ccccc1)N=O)N=O)N=O,0.8,10,.,-1%,-15,
O=C(N/N=C/c1c[nH]c2ccccc12)c1cc(Br)ccc1O,-2.0,.,.,.,-4,
O=[N+]([O-])c1ccc(S(=O)(=O)NCCS(=O)(=O)N2CCN(c3ccccc3)CC2)cc1,-4.4,.,.,.,4,
Cc1cccc(NC(=O)c2cccc(NC(=O)Cc3cccs3)c2)c1,6.3,-30,.,0%,-3,
Cc1cccc(NC2=NC(C)(C)N=C(N)N2)c1,-3.3,-18,.,-4%,2,
CCOc1ccc(C(O)(c2ccccc2)C(CN2CCCC2)c2ccccc2)cc1 (stereo unspecified),1.4,.,.,.,-3,
CCOC(=O)CCC(=O)Nc1ccc(S(=O)(=O)Nc2cc(OC)nc(OC)n2)cc1,0.7,.,.,.,6,
CCCCn1c(NC(=O)c2ccc(Br)o2)c(S(=O)(=O)c2ccccc2)c2nc3ccccc3nc21,90*,-18,-1,6%,-7,
CCN(CC)c1nc(N)nc(NS(=O)(=O)c2ccc(Cl)cc2)n1,-0.1,10,-48,11%,10,
CCOCCCNC(=O)Cn1cc2c(n1)CCCC2,0.4,6,-28,-8%,-3,Arbovirus anti repeat=1
COc1cc(/C=C(\C#N)c2ccccn2)ccc1OCc1ccc(Cl)cc1,-8.0,0,3,?,95,
O=C(CCCN1C(=O)/C(=C/c2cccs2)SC1=S)Nc1ccccc1O,16,.,.,.,0,
CCN1CCN(Cc2ccc(NC(=O)c3cc(NC(=O)c4cnnc5ccccc45)cc(OC)c3)cc2C(F)(F)F)CC1,2.6,.,.,13%,81,
Cc1ccc(Cl)c(Nc2ccccc2C(=O)O)c1Cl,3.4,-6,-29,12%,0&0,
O=C(CSCc1c(Cl)cccc1Cl)NCC1CCCO1 (stereo unspecified),-0.8,7,-173,5%,-2,
CC1(C)C2CCC(C2)C1(C)NC(=O)CNCc1cccs1 (stereo unspecified),-9.4,30*,.,-11%,-3,
CC1=C(C(=O)OC2CCCCCC2)C(c2ccc(C)o2)C2=C(CCCC2=O)N1 (stereo unspecified),1.8,-2,-17,.,6,Arbovirus anti repeat=1
CCCOc1ccccc1/C=N/Nc1ccnc(=O)[nH]1,-6.6,.,.,.,?,
COc1cc(OC)c(C2=NOC(C(=O)N3CCCc4ccccc43)C2)cc1Cl (stereo unspecified),.,4,-30,9%,11,
CSc1ccc(Cl)c(C(=O)OCC(=O)NCc2ccco2)c1,5.2,8,-11,-5%,2,
COc1ccc2c(c1O)[C@]13CCN(C)[C@H](C2)[C@@H]1CCC(=O)C3,-2.6,.,.,-16%,-8,
COc1cc(NC(=O)C/C(C)=N/NC(=O)C(OC)c2ccccc2)c(OC)cc1Cl (stereo unspecified),3.8,0,-20,2%,1,
S=c1[nH]nc(C2(c3ccccc3)CCCC2)o1,0.4,.,.,-4%,6,
O=C(CN1CCN(c2ccc(F)cc2)CC1)N1CCOCC1,1.8,7,-33,-9%,-9,
CCOCCCn1c(=NC(C)=O)c(C#N)cc2c(=O)n3cccc(C)c3nc21,i,.,.,0%,-9,
O=C(NCc1cccnc1)c1nnc(Cc2ccc(F)cc2)o1,-0.3,0,-54,.,5,Arbovirus anti repeat=7
COc1ccc(C(=O)c2ccc(Cl)c([N+](=O)[O-])c2)cc1,12,-23,-19,8%,5,
CCOC(=O)c1sc(NC(=O)CSc2nnnn2-c2ccccc2)nc1C,0.2,26,-37,-2%,-7,

# Continuation.
SMILES,RecA splice inh,Arbovirus anti,YopH PTP inh,Mtb growth,Mtb betalactam,others
CC(=O)N/C(=C\c1cccc([N+](=O)[O-])c1)C(=O)NC1CCCCC1,0.5,0,-6,-1%,1,
Clc1ccc(CSc2nnc3ccccn23)c(Cl)c1,0.9,0,-14,-8%,2,
O=C(Nc1ccc(Cl)cc1Cl)C1CCC(=O)N1Cc1ccccc1Cl (stereo unspecified),15,12,-29,-1%,-8,
CCC(C)(C)c1ccc(Oc2ccc(NC(=O)COC(=O)C3=COCCO3)cc2)cc1,7.6,-31,-7,51%,88,
O=C(NC1CCS(=O)(=O)C1)c1cccc(Cl)c1 (stereo unspecified),3.1,.,.,.,-15,
CCC(=O)Nc1ccc(S(=O)(=O)NCCc2ccccc2)cc1,.,14,-17,7%,24,
CC1CCCCN1S(=O)(=O)c1ccc(C(=O)Nc2nnc(-c3cccs3)o2)cc1 (stereo unspecified),1.0,-8,-30,?,4,
O=c1c(-c2cc3ccccc3o2)[n+]([O-])c2ccccc2n1OCc1ccccn1,-87,-4,-8,3%,2,
Nn1cc(-c2ccccc2)nc1SCC(=O)N1CCN(S(=O)(=O)c2ccc(Cl)cc2)CC1,-2.2,-6,-5,-2%,-5,
O=C(CCN1CCCCC1)N=Nc1c(O)[nH]c2ccccc12,-5.4,-6,.,2%,-3,
Cn1c2ccc(Br)cc2c2nnc(SCC(=O)O)nc21,1.3,.,.,.,11,
CSCCC(NC(=O)c1ccccc1)C(=O)N/N=C(\C)Cc1ccccc1 (stereo unspecified),-1.1,.,.,.,-1,
Cc1nc(NCC2CCCO2)nc2c1C(=O)CC(C)C2 (stereo unspecified),1.0,0,3,5%,2,
Cc1nc(SCc2ccc(F)cc2)c([N+](=O)[O-])[nH]1,1.9,-3,-32,6%,1,
CCOCCCNC(=S)Nc1ccc(Br)cc1Cl,-3.2,.,.,-1%,1,
COc1ccc(S(=O)(=O)NC2CC(=O)N(c3cccc(F)c3)C2)cc1OC (stereo unspecified),1.7,.,.,.,-21,
COc1ccc(O)c(C(c2c(C)[nH][nH]c2=O)c2c(C)[nH][nH]c2=O)c1,92*,-4,.,-6%,2,
NC(=O)c1ccsc1NC(=O)CSc1ccccc1F,-2.6,-5,-2,4%,6,
CN(NC(=O)c1ccc(Cl)cc1)c1nc(-c2ccccc2)nnc1C(F)(F)F,-1.2,-6,-12,.,28,
Cc1ccc(C)c(NC(=O)CCC(=O)NNC(=S)Nc2ccccc2)c1,1.6,0,.,-6%,-10,

# Structures above that have a cyano group, in the order listed:
SMILES,RecA splice inh,Arbovirus anti,YopH PTP inh,Mtb growth,Mtb betalactam,others
Cc1cc(C)n(CC(=O)Nc2ccc(N3CCOCC3)c(Cl)c2)c(=O)c1C#N,-0.2,.,.,.,1,
COc1cc(/C=C(\C#N)c2ccccn2)ccc1OCc1ccc(Cl)cc1,-8.0,0,3,?,95,
CCOCCCn1c(=NC(C)=O)c(C#N)cc2c(=O)n3cccc(C)c3nc21,i,.,.,0%,-9,

# Next part:
SMILES,RecA splice inh,Arbovirus anti,YopH PTP inh,Mtb growth,Mtb betalactam,others
COc1ccccc1-n1cc(CN2CCN(C3CCCC3)C(CCO)C2)cn1 (stereo unspecified),0.0,-1,.,-4%,8,
N#Cc1cn(CC(=O)N2CCc3ccccc3C2)c2ccccc12,-0.3,4,-11,-8%,-7,
CCC(COC)NC(=O)c1ccc(OC)c(OC2CCN(C(C)=O)CC2)c1 (stereo unspecified),0.6,.,.,.,-1,
CN(C)c1nc(OCc2ccccc2)c2ncc(=O)[nH]c2n1,-16,.,.,.,3,
CCC(=O)N1CCc2cc(S(=O)(=O)CCC(=O)NCc3ccc(OC)cc3)ccc21,7.8,.,.,.,-8,
CC1(c2ccc(Cl)cc2)NC(=O)N(CC(=O)NCc2cccs2)C1=O (stereo unspecified),1.8,10,-30,-3%,5,
O=C(CCNS(=O)(=O)c1ccc2c(c1)CCC(=O)N2)Nc1ccc(F)c(F)c1,4.1,.,.,.,-3,
CCN(C(=O)COC(=O)/C=C/c1ccccc1[N+](=O)[O-])C1CCS(=O)(=O)C1 (stereo unspecified),0.8,20,.,-3%,2,
COc1cccc(Cn2nc3c4cc(F)ccc4n(Cc4ccc(F)cc4)cc-3c2=O)c1,-1.9,.,.,.,-3,
CCn1cc(C(=O)NCc2ccco2)c(=O)c2cc(S(=O)(=O)N3CC(C)CC(C)C3)ccc21 (stereo unspecified),-1.7,-10,-10,-12%,-6,
CCOC(=O)c1cccc(NC(=O)/C(=C\c2ccccc2)NC(=O)c2ccccc2Cl)c1,.,-1,-17,6%,-5,
